Source: PubChem (several laboratories)
PABP FP inh = PABP poly(A) RNA binding inhibitors, primary screen, biochemical, fluorescence polarization, uHTS; AID 2014, 2009; hit rate 1% among 290,000; inhibition, % at 35 µM; Polyadenylate-binding protein 1 (Homo sapiens), P11940;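 active means 50% or more with normal probe brightness, or confirmed in later tests; about a fifth of its hits are not listed in these tables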;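 further: calls also rest on retests at 20 µM and on dose response follow-up; controls were probe without protein and protein plus probe with vehicle; some compounds called inactive have numbers as strong as hits; many hits fall short of the cut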
Target sequence (P11940 whole entry, looked up): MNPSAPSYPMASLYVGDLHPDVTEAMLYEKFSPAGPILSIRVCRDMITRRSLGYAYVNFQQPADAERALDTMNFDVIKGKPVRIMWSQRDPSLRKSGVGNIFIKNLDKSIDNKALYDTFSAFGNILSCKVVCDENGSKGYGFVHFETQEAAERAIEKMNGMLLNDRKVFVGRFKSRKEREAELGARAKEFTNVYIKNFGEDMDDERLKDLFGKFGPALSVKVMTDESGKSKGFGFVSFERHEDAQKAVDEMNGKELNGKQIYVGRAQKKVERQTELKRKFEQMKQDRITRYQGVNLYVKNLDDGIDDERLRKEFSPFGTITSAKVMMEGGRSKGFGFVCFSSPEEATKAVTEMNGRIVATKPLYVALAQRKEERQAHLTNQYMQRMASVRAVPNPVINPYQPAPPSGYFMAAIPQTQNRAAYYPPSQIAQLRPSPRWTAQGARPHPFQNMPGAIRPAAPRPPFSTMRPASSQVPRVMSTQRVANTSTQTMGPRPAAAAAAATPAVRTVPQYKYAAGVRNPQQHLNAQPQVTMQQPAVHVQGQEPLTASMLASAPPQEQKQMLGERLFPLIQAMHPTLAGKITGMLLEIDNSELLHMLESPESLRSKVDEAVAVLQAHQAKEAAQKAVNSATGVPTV
Env fusion inh = inhibitors of HIV-1 Env-driven cell-cell fusion, primary screen, HeLa-JRFL effector, CEM21 target cells, luciferase; inhibition, % at 12.3 µM; hit rate 1.1% among 360,000;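 active means mean replicate inhibition score of at least 50 and every replicate individually at or above 50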;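 further: 0% = plate neutral controls and 100% = maraviroc near 300 nM; one replicate is shown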
eIF4H FP inh = human eIF4H binding inhibitors, primary screen, translation initiation inhibitor project, biochemical, uHTS, fluorescence polarization. Eukaryotic translation initiation factor 4H (Homo sapiens), Q15056. eIF4H fluorescence polarization binding assay. inhibition, % at 35 µM. hit rate 0.94% among 290,000;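 active means 50% or more with normal probe brightness, or confirmed in later tests; about a fifth of its hits are not listed in these tables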;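 further: calls also rest on retests at 20 µM and on dose response follow-up; 0% = protein and probe with vehicle and 100% = probe without protein; strong numbers were not always called active; many hits fall short of the cut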
Rce1 inh = yeast Rce1p protease inhibitors, primary screen, biochemical, fluorescence, cell-free homogeneous | CAAX prenyl protease 2 (Saccharomyces cerevisiae (strain ATCC 204508 / S288c)), Q03530 | calls only | yeast membranes, quenched prenylated peptide cleavage fluorescence | hit rate 0.27% among 290,000;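 active means fall in fluorescence gain of 50% or more versus controls, with final raw signal at or below 3038400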;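 further: plate controls were neutral control wells for no effect and wells lacking membranes for full effect; tested at 10 µM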
Target sequence (Q03530 whole entry, looked up): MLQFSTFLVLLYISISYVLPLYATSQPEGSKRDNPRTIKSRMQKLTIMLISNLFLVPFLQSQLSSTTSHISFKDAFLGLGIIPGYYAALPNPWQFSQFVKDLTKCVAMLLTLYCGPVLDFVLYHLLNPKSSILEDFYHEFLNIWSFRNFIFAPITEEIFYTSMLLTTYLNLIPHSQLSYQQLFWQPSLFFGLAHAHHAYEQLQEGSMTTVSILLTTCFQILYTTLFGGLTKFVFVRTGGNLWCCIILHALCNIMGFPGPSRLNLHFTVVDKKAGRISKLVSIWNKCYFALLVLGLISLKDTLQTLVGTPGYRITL
Yeast UUG start = modulators of yeast start codon fidelity, primary screen, whole organism, S. cerevisiae, single point, plate reader; S. cerevisiae UUG-firefly luciferase reporter, luminescence/redox ratio; activity score, % at 18.7 µM; hit rate 0.13% among 350,000; AID 602363, 2012;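 active means replicate mean at a twofold rise or more, about +100% in these data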;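 further: firefly luciferase made from a UUG start codon reports start codon fidelity; reporter light over untreated wells divided by growth signal over untreated wells; some hits fall short of that in this replicate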
MT1-MMP act inh = blockers of MT1-MMP proenzyme processing, primary screen, HT1080 RFP-PRO-GFP cells, GFP/RFP fluorescence; hit rate 0.061% among 360,000; GFP/RFP ratio fluorescence, overnight; percent of plate control window, DMSO zero; GFP/RFP ratio change, % at 20 µM; Matrix metalloproteinase-14 (Homo sapiens), P50281;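 active means GFP/RFP ratio change of at least 30% with cell ATP level not reduced by more than half and red fluorescence within 50% of control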; further: strong numbers were not always called active
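Assay system: HT1080 RFP-PRO-GFP cells. Benchmarks: DMSO vehicle wells and RFP-L50D-GFP reporter cell wells. Times: overnight cell settling, then overnight compound exposure, 37 °C, 5% CO2. Compound: 20 µM single dose, 1% DMSO. Read-out basis: GFP/RFP fluorescence ratio.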
CSC inhib = cancer stem cell viability inhibitors, primary screen, luminescence. AID 2717, 2010. cancer stem cell-like cells viability. hit rate 1.1% among 300,000. inhibition, % at 7.5 µM;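 active means mean at 75% or more and at least half the replicates too; tested in HMLE shEcad cells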;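 further: 0% = median of negative and 100% = median of positive control wells; the first replicate is given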
eIF4H FP inh retest = further read-out of eIF4H FP inh, marked with its call; inhibition, %; compound at 20 µM; confirmation average;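 mean of two retest wells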
PABP FP inh retest = second read-out of PABP FP inh, no call of its own (marks repeat the call); inhibition, %; compound at 20 µM; confirmation repeats;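 mean of two retest wells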
MT1-MMP act inh RFP = recorded beside MT1-MMP act inh, whose call it bears; RFP signal change, %; measured here: RFP expression control read;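 0 = vehicle wells; hits needed this value within 50% of zero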
* = called active by the depositor; i = inactive; . = not tested or not shown.

SMILES	PABP FP inh	Env fusion inh	eIF4H FP inh	Rce1 inh	Yeast UUG start	MT1-MMP act inh	MT1-MMP act inh RFP	CSC inhib	others
O=C(O)Cc1ccc(C(=O)c2ccc(Cl)cc2)s1	0	19	-6	i	-21	-4	1	-5
O=C(COC(=O)c1ccc(F)c(S(=O)(=O)N2CCOCC2)c1)Nc1ccc(Cl)cn1	.	5	.	.	-14	6	1	.
CC(C)(C)c1cc(C(=O)NNc2ccc(OC(F)(F)F)cc2)n(Cc2ccccc2)n1	-1	-6	-11	i	.	0	0	78*
CCN(CC)S(=O)(=O)c1ccc(Nc2ccc(-c3ccc4c(c3)OCCO4)nn2)cc1	-11	1	-12	i	.	10	7	1
CCOc1cc(N2CCOCC2)c(OCC)cc1NS(=O)(=O)c1ccc2c(c1)CC(=O)N2	.	4	.	.	-7	-1	4	.
Cc1c(C)n(C(=O)CN2CCC(C(N)=O)CC2)c2ccccc12	-14	.	-10	i	-15	-4	0	0
O=[N+]([O-])c1cc(/C=N/NC(=S)Nc2ccccc2Cl)ccc1Cl	3	7	-10	i	-21	0	-4	84*
O=C(CSc1nnc2ccccn12)NCCN1C(=O)CSC1=O	-2	.	-2	i	.	2	1	12
CC1CCN(CC(=O)c2cccs2)CC1	-3	-17	-7	i	.	2	1	-8
COc1cccc(N2CCN(c3ccc4nnc(CCC(=O)Nc5ccc(F)cc5)n4n3)CC2)c1	-2	8	-5	i	-29	4	-1	-1
O=C(CCN1C(=O)C2CC=C(Cl)CC2C1=O)N1CCCCC1 (stereo unspecified)	61	-33	27	i	-12	-13	2	-8	eIF4H FP inh retest=14;PABP FP inh retest=26
NC(N)=Nc1nc(CCN2C(=O)c3ccccc3C2=O)cs1	-5	-9	-12	i	-21	-5	-2	-4
Cc1nc(Nc2cccc(O)c2)c2oc3ccccc3c2n1	7	-8	8	i	-15	0	-5	5
O=[N+]([O-])c1ccc(/C=N/NC(=S)Nc2ccccc2)o1	7	-21	18	i	.	3	5	-10
CN(C)S(=O)(=O)c1cccc(-c2csc(=Nc3ccccc3)n2CCCN2CCOCC2)c1	3	-8	-6	i	1	-1	-1	-10

Structural class: the compounds so far with fluorine (three)
SMILES	PABP FP inh	Env fusion inh	eIF4H FP inh	Rce1 inh	Yeast UUG start	MT1-MMP act inh	MT1-MMP act inh RFP	CSC inhib	others
O=C(COC(=O)c1ccc(F)c(S(=O)(=O)N2CCOCC2)c1)Nc1ccc(Cl)cn1	.	5	.	.	-14	6	1	.
CC(C)(C)c1cc(C(=O)NNc2ccc(OC(F)(F)F)cc2)n(Cc2ccccc2)n1	-1	-6	-11	i	.	0	0	78*
COc1cccc(N2CCN(c3ccc4nnc(CCC(=O)Nc5ccc(F)cc5)n4n3)CC2)c1	-2	8	-5	i	-29	4	-1	-1

Carrying on.
SMILES	PABP FP inh	Env fusion inh	eIF4H FP inh	Rce1 inh	Yeast UUG start	MT1-MMP act inh	MT1-MMP act inh RFP	CSC inhib	others
CCOC(=O)c1c(-c2ccccc2)csc1NC(=O)CSc1nnc(C)s1	-4	45	-6	i	0	-9	-19	5
O=C(O)CCC(=O)NNC(=O)c1ccc([N+](=O)[O-])cc1	-2	9	-2	i	.	0	0	3
CCOC(=O)c1sc2nc(C)nc(N3CCN(S(=O)(=O)c4ccccc4)CC3)c2c1C	.	-16	.	.	-16	0	-6	23
N#Cc1c[nH]n2c(=O)c3c(nc12)CCC3	-5	-1	-11	i	.	-3	0	-6
CC(=O)c1c(C)[nH]c(C(=O)COC(=O)c2cc(S(=O)(=O)N(C)c3ccccc3)ccc2Cl)c1C	8	-19	2	i	.	-3	-5	-8
Cn1c(Cl)cnc1C(O)(c1ccccc1)c1ccccc1	-2	-10	7	i	.	1	2	-10
Cc1cc(C(=O)OCC(=O)Nc2nnc(C(C)C)s2)c2ccccc2n1	-2	10	2	i	.	-3	-5	7
N#CCCN(C(=O)COC(=O)c1ccc2c(=O)n3c(nc2c1)CCC3)c1ccccc1	-4	-2	6	i	.	-1	3	6
Cc1nnsc1-c1nc2ccccc2[nH]1	1	-122	-2	i	-25	5	3	11
CC(=O)N(c1nc(CCl)cs1)c1c(C)cc(C)cc1C	0	16	-5	i	.	0	2	-5
O=C(NCCc1ccc(Cl)cc1)c1nnc(Cc2ccc(Cl)cc2)o1	8	9	3	i	-6	3	2	0
COc1ccc(-c2cn3cc(C(=O)NN)ccc3n2)cc1	-2	-24	-10	i	.	5	2	4
COc1ccc(S(=O)(=O)Nc2noc3ccccc23)cc1OC	0	38	1	i	-7	0	3	3
O=C(O)C1(c2ccccc2)CCN(S(=O)(=O)c2ccc(Cl)cc2)CC1	15	6	8	i	-2	0	1	-7
OCCC1CN(Cc2cnc(-c3ccccc3)s2)CCN1C1CCCCC1 (stereo unspecified)	-7	2	3	i	-10	-2	3	36
CCN(CC)c1ccc2c(c1)C(=O)N(C)C2=O	38	.	23	i	0	-8	6	.
Cc1nc2c3ccccc3nc(NNC(=O)CCC(=O)NCCN3CCN(c4ccccc4F)CC3)n2n1	-1	.	-3	i	0	1	4	-6
Cc1nn(CCC(=O)NNC(=S)NCC(C)C)c(C)c1Br	2	.	3	i	-22	4	3	-6
O=C1CC(NS(=O)(=O)c2cccnc2)CN1c1cccc(F)c1 (stereo unspecified)	.	0	.	i	.	1	4	-9
O=C(Nc1ccncc1)c1cc(S(=O)(=O)N2CCN(c3ccccc3)CC2)ccc1Cl	.	-7	.	i	-18	-2	-12	-10
COc1cc2c(c(OC)c1OC)-c1ccc(N(C)CC(OC)OC)c(=O)cc1[C@@H](NC(C)=O)CC2	-2	i	1	i	.	10	-1	75*
Cc1cc(OCc2cc(C(=O)N(C)CCc3cnn(C)c3)no2)cc(C)c1Cl	-2	-63	-6	i	-17	0	-6	-5
CC(C)COCC(O)CCC(=O)NNC(=S)Nc1ccccc1 (stereo unspecified)	21	.	-3	i	.	2	2	-10
COc1cccc(OC)c1C(=O)NC(C)c1ccccc1 (stereo unspecified)	0	.	3	i	.	-5	-4	4
Cc1cc(C)cc(NC(=O)Cn2cc(C=O)c3ccccc32)c1	4	27	2	i	-8	3	-10	3
O=C(NCCn1cc(SCC(=O)N2CCOCC2)c2ccccc21)c1ccccc1	4	-244	-3	i	-7	-3	-2	0
CCn1cc(-c2csc(N)n2)c(C)n1	8	1	-7	i	.	1	8	-12
CCOCCCNC(=O)C(NC(=O)Cc1c[nH]c2ccccc12)c1ccc(OC)cc1 (stereo unspecified)	22	11	2	i	.	-1	-2	-15
Cc1ccc(OCC(=O)NCCNC(=O)c2ccncc2)cc1	4	-21	-5	i	-15	0	-1	.
CN(CCOc1ccccc1)S(=O)(=O)c1ccc2oc3ccccc3c2c1	-1	-10	2	i	-14	4	-4	23
COc1ccc(S(=O)(=O)N2CCN(C/C=C/c3ccccc3)CC2)cc1NC(C)=O	-3	2	-4	i	-10	3	-4	10
COc1ccc(C(C#N)Nc2ccc(C)cc2)cc1 (stereo unspecified)	-3	42	5	i	-13	-1	2	0
CN1CCN(P(=O)(c2ccccc2)c2nc3ccccc3s2)CC1 (stereo unspecified)	-2	.	0	i	-13	-1	5	5
Cc1ccccc1-n1nc(C)c2cc(C(=O)N3CCN(S(=O)(=O)c4ccc(Cl)cc4)CC3)sc21	-19	.	-22	i	-10	-2	-17	6
CCOc1ccc(S(=O)(=O)N(CC)CC(=O)NCc2ccco2)cc1C	1	20	-12	.	15	5	0	-8
NC(=O)c1cc(NC(=O)c2ccc(NS(=O)(=O)c3cccs3)cc2)cc(C(N)=O)c1	6	-3	-4	i	-6	2	3	2
Oc1ccc(-c2[nH]nc(-c3ccccc3)c2-c2nc3ccccc3[nH]2)cc1	-14	-84	-5	i	-26	-4	-5	4
COc1ccc(-c2c(C)n([O-])c3c([n+]2=O)CCCCC3)cc1OC	-7	-14	2	i	.	-2	-4	-7
O=C(Nc1ccc(F)cc1F)c1cc2ncc(CCCl)cn2n1	-5	7	4	i	.	2	-2	6
Cc1ccc(S(=O)(=O)N(CC(O)CN2CCOCC2)c2cccc([N+](=O)[O-])c2)cc1 (stereo unspecified)	-12	-2	-5	i	-11	3	3	-15
COc1cccc(NC(=O)CSc2nc3ncc(Br)cc3[nH]2)c1	0	4	-9	i	-16	0	-3	69
COc1ccccc1C(=O)NCCOc1ccc(C(C)(C)C)cc1	3	11	-4	i	-16	-2	-6	12
CCOC(=O)C1=C(C)SC2=NS(=O)(=O)CCN21	-3	.	2	i	-16	-4	8	.
COCC(C)n1c(C)cc(C(=O)CSc2nnnn2-c2ccc(O)cc2)c1C (stereo unspecified)	-19	-17	12	i	-13	-7	-4	2
Brc1ccc(CN2CCCCCC2)cc1	.	15	.	i	.	4	7	12
O=C(COC(=O)CCC(=O)c1ccc(F)cc1)NC1CCCCC1	.	-16	.	.	.	2	6	-8
O=C(Nc1ccc(F)cc1)C1CCC(N2C(=O)c3ccccc3C2=O)CC1 (stereo unspecified)	11	.	-2	i	2	5	0	3
CCc1noc(C)c1C(=O)NNC(=O)c1nn(CC)c(=O)c2ccccc12	.	-22	.	i	.	5	1	-8
N#Cc1c(F)cccc1NCc1cccs1	-5	4	-1	.	-9	2	-1	7
c1ccc(-c2cccc(-c3ccccn3)n2)nc1	4	.	16	i	-6	-11	-8	107*
C/C(CC(=O)Nc1cc(C)ccn1)=N\NC(=O)c1cccc(F)c1	8	-52	0	i	-1	1	5	-7
Cc1ccc(C)c(NC(=O)COC(=O)c2nn(C)c(=O)c3ccccc23)c1	.	.	.	.	-8	-1	-4	-5
COc1ccccc1S(=O)(=O)N(C)C[C@H]1Oc2ncc(Br)cc2C(=O)N([C@H](C)CO)C[C@H]1C	.	27	.	.	-29	1	4	.
CC(C)(C)c1ccc(OC(=O)Cn2c(C(F)(F)F)nc3ccccc32)cc1	-14	.	4	i	-19	4	7	14
O=C(C1CCCN(c2nnc(-n3cccc3)s2)C1)N1CCN(c2ccccc2)CC1 (stereo unspecified)	-12	2	-8	i	5	1	-5	-11
COc1ccc(C(=O)Nc2c(O)ccc3ccccc23)cc1OC	.	8	.	i	-5	1	5	11
CCOC(=O)C1CCN(Cc2nnc(-c3ccccc3C)o2)CC1	0	-34	-1	i	2	-2	-1	10
CCNS(=O)(=O)c1ccc(NC(=S)NCc2ccco2)cc1	-3	.	11	i	.	1	0	18
COCC(C)OC(=O)c1c(N)n(CCCN2CCOCC2)c2nc3ccccc3nc12 (stereo unspecified)	-11	16	20	i	6	-1	-1	-2
CC(CN1CCOCC1)OC(=O)c1ccc(Cl)cc1Cl (stereo unspecified)	-11	-4	-10	i	-9	3	1	-6
CCOC(=O)CNC(=O)Cn1cnc2c(nnn2-c2ccccc2)c1=O	-2	.	-2	i	-8	2	3	-16

Ordered by count of non-hydrogen atoms (lowest first): part of the list above.
SMILES	PABP FP inh	Env fusion inh	eIF4H FP inh	Rce1 inh	Yeast UUG start	MT1-MMP act inh	MT1-MMP act inh RFP	CSC inhib	others
CCOC(=O)C1CCN(Cc2nnc(-c3ccccc3C)o2)CC1	0	-34	-1	i	2	-2	-1	10
CCOC(=O)CNC(=O)Cn1cnc2c(nnn2-c2ccccc2)c1=O	-2	.	-2	i	-8	2	3	-16
Cc1ccc(C)c(NC(=O)COC(=O)c2nn(C)c(=O)c3ccccc23)c1	.	.	.	.	-8	-1	-4	-5
COCC(C)OC(=O)c1c(N)n(CCCN2CCOCC2)c2nc3ccccc3nc12 (stereo unspecified)	-11	16	20	i	6	-1	-1	-2
